High-throughput results (PubChem BioAssay)
AMA1 RON2 block = qHTS for Inhibitors of AMA1-RON; Towards Development of Antimalarial Drug Lead: Primary Screen. hit rate 0.2% among 360,000. AlphaScreen AMA1-biotinylated RON2 peptide binding. Potency, µM (doses to about 58.2 µM), inactives show at the highest dose activity change, negative = inhibition, actives largely listed as inhibitors; active means well fitted inhibition curve with a large enough effect;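 further: 0% = vehicle wells and -100% = peptide control; nearly all actives have a fitted effect of over 45% in size; some results filed as inactive show a strong effect at the top dose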
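AMA1 (3D7) with his tag at 25 nM final met compounds first, then biotinylated RON2 peptide at 25 nM; detection used donor plus acceptor beads, 10 µg/mL apiece, read by AlphaScreen after 30 min at room temperature.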
The depositor's hits bear a star; & = joins results of further samples. Potency means the concentration at half of the fitted maximal effect. The list is partial; most or all hits stand in other tables.

entry	Structure	AMA1 RON2 block
1	Nc1ccn(C2CSC(CO)O2)c(=O)n1 (stereo not drawn)	10%
2	CCOC(=O)C1=C(C)NC(C)=C(C(=O)OC)C1c1cccc(Cl)c1Cl (stereo not drawn)	3%
3	CCOC(=O)C1=C(COCCN)NC(C)=C(C(=O)OC)C1c1ccccc1Cl (stereo not drawn)	10%&5%&10%
4	C[C@]12CC[C@H]3[C@@H](CCC4=CC(=O)CC[C@@]43C)[C@@H]1CC[C@@H]2O	0%&0%
5	Cn1ncc(Br)c1C(=O)O	14%
6	Nc1ccc(S(=O)(=O)Nc2ncccn2)cc1	-14%
7	CCNC(=O)C1CC(=O)N(CC)C(=Nc2cc(Cl)c(O)c(Cl)c2)S1 (stereo not drawn)	-2%

Some of the entries so far, field by field:
(1) Nc1ccn(C2CSC(CO)O2)c(=O)n1 (stereo not drawn)
  AMA1 RON2 block: 10%
(4) C[C@]12CC[C@H]3[C@@H](CCC4=CC(=O)CC[C@@]43C)[C@@H]1CC[C@@H]2O
  AMA1 RON2 block: 0%&0%
(2) CCOC(=O)C1=C(C)NC(C)=C(C(=O)OC)C1c1cccc(Cl)c1Cl (stereo not drawn)
  AMA1 RON2 block: 3%
